Compound activity from PubChem BioAssay.
Six1-Eya2 blk: blocks human Six1 binding to Eya2 | Q15475+O00167 | AlphaScreen GST-Six1/His-Eya2 binding, biochemical; active compounds read low; control for the full effect not named in the record | activity change, % (concentration not given with the values) | hit rate 0.56% among 360,000 | AID 651725; in the data active = activity change below about -65%; inconclusive = about -30% to -65%; inactive = above about -30%; further: on the % scale 0 is the no-effect control and ±100 the full control effect
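Homogeneous AlphaScreen proximity assay pairing GST-Six1 with His-tagged Eya2 (added as 5X mix: 250 nM and 500 nM) in 50 mM Tris pH 8.0, 300 mM NaCl, 1 mM TCEP. Glutathione donor and nickel acceptor beads; 1 h, 37 °C, dark.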
TRPML1 ag: activates the human TRPML1 channel; hit rate 0.12% among 410,000; TRPML1-expressing cells, Ca2+ dye fluorescence, FDSS; host cell line not named in the record; reference of the full effect not given here; Q9GZU1; activation, % (test concentration not listed); in the data active = activation above about 50%; inconclusive = about 30% to 50%; inactive = below about 30%; further: 0% is about no effect; the text of the record puts the active cut at 80%
Target sequence (Q9GZU1 whole entry, looked up): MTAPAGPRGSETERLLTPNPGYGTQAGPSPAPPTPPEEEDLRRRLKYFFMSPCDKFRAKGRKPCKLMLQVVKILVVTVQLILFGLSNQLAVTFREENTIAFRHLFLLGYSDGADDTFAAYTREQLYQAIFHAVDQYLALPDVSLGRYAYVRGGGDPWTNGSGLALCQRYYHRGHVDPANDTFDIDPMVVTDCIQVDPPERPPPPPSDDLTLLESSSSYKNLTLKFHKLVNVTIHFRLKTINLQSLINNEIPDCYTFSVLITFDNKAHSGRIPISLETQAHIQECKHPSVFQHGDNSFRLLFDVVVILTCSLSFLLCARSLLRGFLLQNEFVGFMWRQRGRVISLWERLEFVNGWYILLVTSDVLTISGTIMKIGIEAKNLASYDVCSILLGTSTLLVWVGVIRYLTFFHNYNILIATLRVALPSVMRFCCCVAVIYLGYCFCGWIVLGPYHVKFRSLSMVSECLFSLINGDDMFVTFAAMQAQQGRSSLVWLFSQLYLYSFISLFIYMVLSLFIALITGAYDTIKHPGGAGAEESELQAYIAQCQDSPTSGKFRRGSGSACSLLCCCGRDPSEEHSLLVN
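Cells: TRPML1-DL, 1X Tet inducer, ~16 h at 37 degrees C/5% CO2. Dye: ABD Ca8 no-wash + quencher, 45-90 min RT. Read: 10 s baseline, compound add, 110 s agonist phase; 54-4 EC80 (4uM final), 110 s antagonist phase.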
CtBP-E1A inh: CtBP/E1A binding inhibition. AID 651724. hit rate 0.49% among 340,000. AlphaScreen GST-E1A/His-CtBP binding, 1536-well; active compounds read low; control for the full effect not named in the record. activity change, % (no concentration beside the values); in the data active means activity change below about -65%; inconclusive means about -30% to -65%; inactive means above about -30%; further: on the % scale 0 is the no-effect control and ±100 the full control effect
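Protein mix (5X: 125 nM each GST-E1A, His-CtBP) was incubated with pinned compound 2 h at 37 deg C in dark, in 50 mM Tris pH 8.0 buffer with 300 mM NaCl. Glutathione donor and nickel acceptor beads followed; AlphaScreen signal read after 1 h.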
D2 potentiator: human D2 receptor positive allosteric modulation | P14416 | DiscoveRx D2 beta-arrestin cells, luminescence, 90 min; 100% = 57 uM dopamine signal | potentiation, % (no concentration beside the values) | hit rate 0.23% among 360,000; active = potentiation of 50% or more; inconclusive = 30% to 50%; inactive = 30% or less;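 further: compound concentration not given in the record; tested on top of an EC20 dose of dopamine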
Target sequence (P14416 whole entry, looked up): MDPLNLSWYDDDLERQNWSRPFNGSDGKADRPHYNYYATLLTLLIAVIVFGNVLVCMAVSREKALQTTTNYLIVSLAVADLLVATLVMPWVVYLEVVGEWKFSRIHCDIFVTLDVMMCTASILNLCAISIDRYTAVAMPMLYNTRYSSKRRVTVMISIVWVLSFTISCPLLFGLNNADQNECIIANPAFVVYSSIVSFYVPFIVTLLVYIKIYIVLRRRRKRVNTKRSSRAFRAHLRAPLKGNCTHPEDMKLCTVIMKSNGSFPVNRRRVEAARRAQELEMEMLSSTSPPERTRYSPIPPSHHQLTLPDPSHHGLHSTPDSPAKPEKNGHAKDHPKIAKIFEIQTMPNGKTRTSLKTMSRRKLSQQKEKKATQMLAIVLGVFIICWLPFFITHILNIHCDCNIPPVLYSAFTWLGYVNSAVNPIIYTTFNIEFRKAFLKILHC
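D2 cells co-treated with compound plus 50 nM dopamine (EC20) for 90 min at 37 deg C to detect potentiation. Beta-arrestin recruitment was read as enzyme-fragment luminescence after 1 h at ambient temperature. Full response was set by 57 uM dopamine.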
TRPML1 blocker: inhibitors of human TRPML1 channel; AID 624415; TRPML1-inducible cells, Ca2+ dye fluorescence, FDSS; active compounds read low; inhibition of EC80 agonist-evoked calcium signal; Q9GZU1; activity change, negative = inhibition, % (no concentration beside the values); hit rate 0.02% among 390,000; in the data active means activity change below about -50%; inconclusive means about -30% to -50%; inactive means above about -30%;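 further: stimulus is agonist 54-4 at its EC80 concentration; on the % scale 0 is the no-effect control and ±100 the full control effect; compound concentration not given in the record; the text of the record puts the active cut at -80%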
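TRPML1-DL cells, Tet-induced overnight (~16 h, 37 °C) at 1,500 cells/well, were loaded with Ca8 no-wash dye plus quencher for 45-90 min at room temperature. Compounds were pinned during FDSS kinetic reading; agonist 54-4 at EC80 (4 uM final) then added.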
TRPV1 PAM: enhances activation of the human vanilloid receptor TRPV1 | AID 540277 | hit rate 0.02% among 320,000 | potentiation, % at 8.33 µM | Q8NER1 | TRPV1-expressing cells, Fluo-8 calcium influx, capsaicin EC20 potentiation; host cell line not named in the record; control for the full effect not named in the record; active means potentiation above 80%; inconclusive means 30% to 80%; inactive means below 30%; further: 0% is about no effect
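TRPV1-expressing cells were cultured overnight at 35.5C and loaded with Fluo-8 calcium dye for 40 to 90 min at room temperature. After a 10 s baseline, compound was added and calcium influx was read kinetically for 3 min (ex 480/em 520 nm).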
Active calls of the source: *; ? = inconclusive; . = no result given; & = joins results of further samples.

molecule	Six1-Eya2 blk	TRPML1 ag	CtBP-E1A inh	D2 potentiator	TRPML1 blocker	TRPV1 PAM
Cc1cccc(CN2CCC(CNC(=O)Nc3ccccc3F)CC2)c1	4	1.2	.	-53	14	.
CC(C)c1ccc(CNC(=O)C2(C)CCCN2C)cc1 (stereo not given)	5	-1.0	3	1	.	.
Nc1c(C(=O)Nc2ccc(F)cc2)sc(=S)n1-c1ccccc1F	-1	-0.2	1	-8	5	-5
OCCN(CC(O)Cn1ccc2ccccc21)CC(O)Cn1ccc2ccccc21 (stereo not given)	-11	1.3	-18	-8	5	-2
C=CCc1ccccc1OCC(O)CN1CCN(Cc2ccc3c(c2)OCO3)CC1 (stereo not given)	-12&-12	-0.4&0.2	-5&-3	-14&-12	-9&27	-30&-2
Cc1nnc(NC(=O)CSc2nnc(C)n2-c2ccc(F)cc2)s1	1	-0.6	7	-2	-6	-2
COc1ccc(-c2nnc(NC(=O)C3CCCO3)s2)cc1 (stereo not given)	-1	-0.5	3	-9	-2	-3
Cc1cc(CNC(=O)COc2cc(F)ccc2[N+](=O)[O-])c2ccccc2n1	1	0.2	-20	-1	-14	6
CC(=O)C1=C(O)C(=O)N(Cc2ccco2)C1c1ccccc1 (stereo not given)	6	0.7	4	-22	-9	-5
Cc1ccc2nc(-c3ccc(SCC(=O)O)nc3)[nH]c2c1	-12	1.7	-18	12	-9	9
CN(CC(=O)Nc1c(Cl)cccc1Cl)C(=O)CCc1nc2sc3c(c2c(=O)[nH]1)CCCC3	-10	0.7	-3	-7	-15	6
CCOC(=O)COc1nc(N(C)C)nc(N(C)C)n1	6	1.1	17	10	3	16
Cc1ccc(NC(=O)COc2ccc3oc4c(c3c2)CCCC4)nc1	12	1.9	5	-3	-4	-5
O=C(Nc1ccc(Br)c(C(F)(F)F)c1)c1ccccc1	6	0.2	-7	-14	-8	-6
O=C(Nc1ccc(NC(=O)c2ccccc2F)cn1)c1ccco1	-16	0.9	-1	-2	-18	4
CN1CCN(C(=O)c2ccc(COc3cc(Cl)ccc3Cl)o2)CC1	-4	-0.1	0	-12	7	19
CCC1(c2ccc(F)cc2)NC(=O)N(CC(=O)Nc2cccc(S(=O)(=O)N3CCOCC3)c2)C1=O (stereo not given)	-2	6.3	-10	2	2	.
COc1ccc(/C=C/C(=O)N2CCN(S(=O)(=O)/C=C/c3ccccc3)CC2)cc1OC	-2	1.5	4	-3	3	10
N=c1n(CC(=O)c2ccc(Br)cc2)c2ccccc2n1Cc1ccccc1	9	-0.4	.	-22	-6	0
Cc1onc(-c2ccccc2Cl)c1C(=O)NNC(=O)C1CCN(Cc2ccccc2)CC1	1	2.0	-4	-16	9	-5
CC(CNC(=O)COc1ccccc1)OC(=O)Nc1ccc(Cl)c(Cl)c1 (stereo not given)	12	0.4	7	-26	-9	1
C/C(=N\NC(=O)c1cccc(N/N=C(\C)c2cc(O)ccc2O)c1)c1cc(O)ccc1O	?	-0.8	?	3	17	?
COc1cccc(CNC(=O)C2CSC3(C)CCC(=O)N23)c1 (stereo not given)	4	-0.1	9	7	26	-4
CCOC(=O)C(NC(=O)c1ccccc1)(Nc1nnc(C)s1)C(F)(F)F (stereo not given)	13	0.2	1	-5	5	-1
CCSc1nnc(NC(=O)CC(C)C)s1	1	1.0	7	-22	3	-3
Cn1c(N)c(C(=O)COC(=O)COc2ccccc2C#N)c(=O)n(C)c1=O	3	-0.2	13	-7	-11	6
C=CCN1N=C(c2ccc(NC(=O)c3ccccc3)cc2)CSC1=O	-3	0.3	.	-5	-8	6
CN(C)S(=O)(=O)c1ccc(C(=O)N2CCCC2c2nc3ccccc3s2)cc1 (stereo not given)	3	-0.3	-3	-22	4	3
COc1ccc(C2=NS(=O)(=O)N(C)C(C(=O)N3CCCCC3)=C2)cc1	6	0.2	-2	-3	-7	-5
COc1ccc(OC)c(CN2C(=O)CCC2(C)c2nnnn2Cc2ccccc2)c1 (stereo not given)	1	-0.3	-1	.	.	.
Cc1ccccc1Oc1cccc(C(=O)/C(C#N)=C/N(C)C)c1	0	0.9	1	21	27	14
O=C(NC(=S)Nc1nc(-c2ccccc2)cs1)c1cccs1	-1	1.3	-16	7	11	-6
CC(=O)c1ccc(Cc2ccc(C(C)=O)s2)s1	3	0.9	0	-39	5	.
O=C(CSc1nnc(-c2ccc(O)cc2)n1Cc1ccccc1)NNC(=O)c1ccc(Br)cc1	-13	-0.1	-10	-7	8	7
O=C(Nc1cccc(F)c1)N1C2CCC1CC(O)(c1cccnc1)C2 (stereo not given)	1	-0.3	10	-4	-2	-8
CC(C)[C@H](NC(=O)[C@@H]1CSC2c3ccccc3C(=O)N21)C(=O)NCc1ccncc1 (stereo not given in full)	9	1.2	1	-12	15	-1
COc1cccc(-c2cccc(-c3nc(C(=O)NCc4ccc(Oc5ccccc5)cc4)cc4c3[C@H](CCO)N(S(=O)C(C)(C)C)C4)c2)c1 (stereo not given in full)	-6	0.1	-21	2	.	.
CC(C)(C)OC(=O)NCc1ccc(NC(=O)c2nc[nH]c2C(=O)NCCN(CCNC(=O)c2[nH]cnc2C(=O)Nc2ccc(CNC(=O)OC(C)(C)C)cc2)CCNC(=O)c2[nH]cnc2C(=O)Nc2ccc(CNC(=O)OC(C)(C)C)cc2)cc1	-6	0.2	1	-12	2	.
COCCCNC(=O)c1ccc2sc([C@@H]3O[C@H](CO)[C@H](O)[C@H](O)[C@H]3O)nc2c1	9	-0.5	-21	-5	.	.
O=C(CCl)NCCN1C(=O)S/C(=C\c2cccnc2)C1=O	-14	0.8	-24	-5	-13	6
CCCn1c(SCC(=O)NC(=O)NCc2ccccc2)n[nH]c1=O	-19	0.1	.	-7	9	.
CCOc1cc(N2CCOCC2)c(OCC)cc1NC(=O)c1ccccc1N1CCCC1=O	-1	-0.4	16	6	7	.
CC(C)(C)c1ccc2c(c1)OC(C(=O)N/N=C\c1ccc(-c3cccc(C(=O)O)c3)o1)CO2 (stereo not given)	-16	0.0	7	-4	3	-8
Cc1ccc(NC(=O)CCNS(=O)(=O)c2ccc3c(c2)oc(=O)n3C)c(C)c1	4	0.0	11	-3	1	-1
CCOc1ccccc1NC(=O)CN(c1ccc(OC)cc1)S(=O)(=O)c1c(C)noc1C	-2	-0.7	5	-10	-5	2

Nothing new here: entries from further up.
molecule	Six1-Eya2 blk	TRPML1 ag	CtBP-E1A inh	D2 potentiator	TRPML1 blocker	TRPV1 PAM
O=C(NC(=S)Nc1nc(-c2ccccc2)cs1)c1cccs1	-1	1.3	-16	7	11	-6
CC(=O)c1ccc(Cc2ccc(C(C)=O)s2)s1	3	0.9	0	-39	5	.
O=C(CSc1nnc(-c2ccc(O)cc2)n1Cc1ccccc1)NNC(=O)c1ccc(Br)cc1	-13	-0.1	-10	-7	8	7
O=C(Nc1cccc(F)c1)N1C2CCC1CC(O)(c1cccnc1)C2 (stereo not given)	1	-0.3	10	-4	-2	-8
CC(C)[C@H](NC(=O)[C@@H]1CSC2c3ccccc3C(=O)N21)C(=O)NCc1ccncc1 (stereo not given in full)	9	1.2	1	-12	15	-1
COc1cccc(-c2cccc(-c3nc(C(=O)NCc4ccc(Oc5ccccc5)cc4)cc4c3[C@H](CCO)N(S(=O)C(C)(C)C)C4)c2)c1 (stereo not given in full)	-6	0.1	-21	2	.	.
CC(C)(C)OC(=O)NCc1ccc(NC(=O)c2nc[nH]c2C(=O)NCCN(CCNC(=O)c2[nH]cnc2C(=O)Nc2ccc(CNC(=O)OC(C)(C)C)cc2)CCNC(=O)c2[nH]cnc2C(=O)Nc2ccc(CNC(=O)OC(C)(C)C)cc2)cc1	-6	0.2	1	-12	2	.
COCCCNC(=O)c1ccc2sc([C@@H]3O[C@H](CO)[C@H](O)[C@H](O)[C@H]3O)nc2c1	9	-0.5	-21	-5	.	.
O=C(CCl)NCCN1C(=O)S/C(=C\c2cccnc2)C1=O	-14	0.8	-24	-5	-13	6
CCCn1c(SCC(=O)NC(=O)NCc2ccccc2)n[nH]c1=O	-19	0.1	.	-7	9	.
CCOc1cc(N2CCOCC2)c(OCC)cc1NC(=O)c1ccccc1N1CCCC1=O	-1	-0.4	16	6	7	.
CC(C)(C)c1ccc2c(c1)OC(C(=O)N/N=C\c1ccc(-c3cccc(C(=O)O)c3)o1)CO2 (stereo not given)	-16	0.0	7	-4	3	-8
Cc1ccc(NC(=O)CCNS(=O)(=O)c2ccc3c(c2)oc(=O)n3C)c(C)c1	4	0.0	11	-3	1	-1
CCOc1ccccc1NC(=O)CN(c1ccc(OC)cc1)S(=O)(=O)c1c(C)noc1C	-2	-0.7	5	-10	-5	2

The listing continues.
molecule	Six1-Eya2 blk	TRPML1 ag	CtBP-E1A inh	D2 potentiator	TRPML1 blocker	TRPV1 PAM
CS(=O)(=O)c1ccc(-c2sc3ccccc3c2C#CCCO)cc1	5	-0.4	-1	-20	-13	.
Nc1ccc(C(=O)OCC(=O)c2cccc([N+](=O)[O-])c2)cc1	-4	-0.4	4	-1	20	-6
CCOc1ccc(CCNC(=O)C2CCC(=O)N2CCc2ccccc2)cc1OCC (stereo not given)	3	0.5	-6	-12	-4	11
CC[n+]1c(-c2ccccc2)csc1Nc1c(C)n(C)n(-c2ccccc2)c1=O	8	1.1	0	-2	-19	11
Cc1ccc(-n2c(N)c(C(=O)N3CCCCC3)sc2=S)cc1	-13	0.4	-11	-1	4	-7
Cc1ccccc1OCc1nc(-c2ccccc2)no1	109	2.9	83	16	22	1
Cc1cc(Cl)c2cc3ccccc3cc2n1	18	-0.4	5	2	-30	21
C/C(=N\Nc1ccc(C(=O)O)cc1)c1ccc(Cl)s1	-16	0.5	-10	-7	-17	-3
O=C(NCc1ccccc1)C1CCN(S(=O)(=O)c2ccc(Cl)cc2)CC1	7	-0.3	-15	-17	60	-16
Cc1ccc(/C=N/NC(=S)N2CCOCC2)cc1	-19	-0.1	-12	-19	11	-11
CCCCNCc1cc(OCC)c(OCC)cc1Br	0	-1.0	.	-18	-4	9
CCCc1cc(=O)n2[nH]c(NCc3ccccc3F)nc2n1	5	0.2	2	-9	5	21
Cc1cn([C@H]2C[C@H](O)[C@@H](/C=C/C(=O)NCCN3CCCCC3)O2)c(=O)[nH]c1=O	-4	-0.2	2	-3	-4	.
COc1ccc(S(=O)(=O)N2CCC(C(=O)N3CCc4ccccc4C3)CC2)cc1OC	-3	0.0	-21	-17	13	8
N#Cc1ccc(OCC(=O)Nc2cccc(S(=O)(=O)NC3=NCCCCC3)c2)cc1	-2	-0.7	5	-5	-3	21
COc1ccc(OCC(=O)NC(=S)Nc2ccc3c4c(cccc24)CC3)cc1	4	0.5	6	-10	0	-5
CCCCCCCCN1C(=O)[C@H](CC(=O)NCCCOC)C[C@@]2(C(=O)OCC)CCCC=C12	7	-0.4	-21	.	.	.
